Rce1 inhib: yeast Ras-converting enzyme inhibition | Q03530 | AID 2563 | calls only | 290,000 tested, 0.27% active | yeast membranes, quenched prenylated peptide cleavage fluorescence;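 active means fall in fluorescence gain of 50% or more versus controls, with final raw signal at or below 3038400; inconclusive means same 50% fall but final raw signal above 3038400; inactive means fall in fluorescence gain under 50%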;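 further: plate controls were neutral control wells for no effect and wells lacking membranes for full effect; tested at 10 µM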
eIF4H FP inh: inhibitors of RNA binding by human eIF4H; Q15056; eIF4H fluorescence polarization binding assay; inhibition, % at 35 µM; 290,000 tested, 0.94% active;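 active means 50% or more with normal probe brightness, or confirmed in later tests; inconclusive means above 50% with abnormal brightness, or retests that disagree; inactive means below 50% or failed in later tests; about a fifth of its hits are not listed in these tables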;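 further: calls also rest on retests at 20 µM and on dose response follow-up; 0% = protein and probe with vehicle and 100% = probe without protein; strong numbers were not always called active; many hits fall short of the cut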
HIV Env fusion: inhibitors of HIV Env-mediated cell fusion; inhibition, % at 12.3 µM; AID 651610; 360,000 tested, 1.1% active; HeLa-JRFL Env/CEM21 cell fusion, luciferase;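 active means mean replicate inhibition score of at least 50 and every replicate individually at or above 50; inconclusive means only one of the two criteria met; inactive means mean below 50 and not all replicates reaching 50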;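 further: 0% = plate neutral controls and 100% = maraviroc near 300 nM; one replicate is shown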
PABP FP inh: PABP-poly(A) binding inhibition; 290,000 tested, 1% active; AID 2014; PABP-poly(A) RNA binding, fluorescence polarization; inhibition, % at 35 µM;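 active means 50% or more with normal probe brightness, or confirmed in later tests; inconclusive means above 50% with abnormal brightness, or retests that disagree; inactive means below 50% or failed in later tests; about a fifth of its hits are not listed in these tables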;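 further: calls also rest on retests at 20 µM and on dose response follow-up; controls were probe without protein and protein plus probe with vehicle; some compounds called inactive have numbers as strong as hits; many hits fall short of the cut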
Target sequence (P11940 whole entry, looked up): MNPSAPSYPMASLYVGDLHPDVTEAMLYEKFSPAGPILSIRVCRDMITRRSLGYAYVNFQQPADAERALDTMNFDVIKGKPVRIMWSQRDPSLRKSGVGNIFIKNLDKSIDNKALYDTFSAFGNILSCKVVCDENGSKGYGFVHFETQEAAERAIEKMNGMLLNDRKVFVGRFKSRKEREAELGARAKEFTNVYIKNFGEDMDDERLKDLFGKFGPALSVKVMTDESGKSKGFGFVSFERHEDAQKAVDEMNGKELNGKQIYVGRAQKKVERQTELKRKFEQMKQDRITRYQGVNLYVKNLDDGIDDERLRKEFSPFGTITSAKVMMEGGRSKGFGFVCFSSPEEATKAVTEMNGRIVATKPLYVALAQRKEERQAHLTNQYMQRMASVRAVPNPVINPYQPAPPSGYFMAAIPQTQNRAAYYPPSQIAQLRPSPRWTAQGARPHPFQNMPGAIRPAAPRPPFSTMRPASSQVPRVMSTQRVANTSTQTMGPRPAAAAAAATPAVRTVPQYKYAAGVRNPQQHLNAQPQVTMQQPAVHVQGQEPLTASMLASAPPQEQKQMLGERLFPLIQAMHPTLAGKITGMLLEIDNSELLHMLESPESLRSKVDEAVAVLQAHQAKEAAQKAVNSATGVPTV
MT1-MMP act inh: MT1-MMP (human) activation inhibition; P50281; HT1080 RFP-PRO-GFP cells, GFP/RFP ratio fluorescence, overnight; percent of plate control window, DMSO zero; GFP/RFP ratio change, % at 20 µM; 360,000 tested, 0.061% active; AID 651647;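 active means GFP/RFP ratio change of at least 30% with cell ATP level not reduced by more than half and red fluorescence within 50% of control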; further: strong numbers were not always called active
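Read-out: GFP/RFP fluorescence ratio; Test system: RFP-PRO-GFP reporter HT1080 cells; Compound dosing: single-point 20 µM compound, 1% DMSO; Times: overnight compound exposure at 37 °C.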
CSC inhib: cancer stem cell inhibition | inhibition, % at 7.5 µM | cancer stem cell-like cells viability, luminescence | 300,000 tested, 1.1% active;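 active means mean at 75% or more and at least half the replicates too; inconclusive means mean and replicates disagree; tested in HMLE shEcad cells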;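 further: 0% = median of negative and 100% = median of positive control wells; the first replicate is given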
Yeast UUG start: modulators of start codon recognition fidelity in yeast; activity score, % at 18.7 µM; 350,000 tested, 0.13% active; S. cerevisiae UUG-firefly luciferase reporter, luminescence/redox ratio;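 active means replicate mean at a twofold rise or more, about +100% in these data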;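 further: firefly luciferase made from a UUG start codon reports start codon fidelity; reporter light over untreated wells divided by growth signal over untreated wells; some hits fall short of that in this replicate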
eIF4H FP inh retest: second read-out of eIF4H FP inh, no call of its own (marks repeat the call); inhibition, %; compound at 20 µM; confirmation average;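 mean of two retest wells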
PABP FP inh retest: also measured in PABP FP inh; calls as there; inhibition, %; compound at 20 µM; confirmation repeats;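 mean of two retest wells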
MT1-MMP act inh RFP: recorded beside MT1-MMP act inh, whose call it bears; RFP signal change, %; measured here: RFP expression control read;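 0 = vehicle wells; hits needed this value within 50% of zero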
The depositor's hits bear a star; i = inactive; ? = inconclusive; · = no result given. Random draw from the library; 2.9% or so of the library scored in one or more.

SMILES	Rce1 inhib	eIF4H FP inh	HIV Env fusion	PABP FP inh	MT1-MMP act inh	MT1-MMP act inh RFP	CSC inhib	Yeast UUG start	others
C=CCn1cnnc1SCC(=O)N(C)CC1COc2ccccc2O1 (stereo unspecified)	·	·	·	·	3	4	-8	-10
O=C(Nc1cccc(Oc2ccccc2)c1)c1ccc(-n2cncn2)c2ccoc12	·	·	19	·	1	-2	·	-18
N#Cc1c(-c2ccc(Cl)cc2)c(C#N)c(=O)n(N)c1N	i	3	36	1	1	4	2	·
CC1CCN(Cc2ccc(-c3nnn(CC(=O)NC4CCCCC4)n3)cc2)CC1	i	-10	8	-14	2	0	-9	·
COc1cnn(-c2ccccc2)c(=O)c1SCc1ccc(Cl)c(Cl)c1	i	-16	-59	1	5	-7	12	-8
Cc1nc(SCC(=O)Nc2c(C)n(C)n(-c3ccccc3)c2=O)[nH]c(=O)c1Cc1ccccc1	i	8	·	4	0	1	-7	-11
CS(=O)(=O)N(CC(=O)NCc1ccco1)c1ccc(Cl)cc1Cl	i	1	-6	?	1	0	0	-8
CO/N=C1\CCCc2c(C(=O)NN)sc(SC)c21	i	-7	-26	2	2	-10	45	-4
Cn1ncc2c(NCc3cccc(C(F)(F)F)c3)c(C(=O)O)cnc21	i	5	-17	3	·	·	-9	·
Cc1ccc(S(=O)(=O)N2CCCCC2C(=O)O)cc1 (stereo unspecified)	i	-5	7	-3	-2	-1	-1	·
Cc1ccccc1OCC(O)Cn1c(N2CCCCC2)nc2c1c(=O)[nH]c(=O)n2C (stereo unspecified)	i	-7	9	1	1	-1	-10	-12
COc1ccc(/C=N\Nc2ncc(F)c(N3CCOCC3)n2)cc1OC	i	-1	-28	-5	2	-1	-6	·
CCn1nc(C)c(CCC(=O)O)c1C	i	5	10	-2	6	3	-8	·
CC(C)(C)c1cc(S(=O)(=O)CCc2ccccn2)cc(C(C)(C)C)c1F	i	-3	·	0	-8	-5	3	8
CC(C)(C)c1ccc(C(=O)NCc2nnc(SCC(=O)NCc3ccco3)o2)cc1	i	52*	-141	11	4	8	9	-13	eIF4H FP inh retest=82*;PABP FP inh retest=50
CC(=O)c1ccc(OCc2cc(C(=O)N3CC[C@@H]4CCCC[C@H]4C3)no2)cc1	i	-3	-73	8	0	-3	-13	-6
O=C(NNC(=O)c1ccc(Cl)cc1Cl)c1csc(-c2cccnc2)n1	i	-5	-1	8	2	-2	1	-27
c1ccc(C[C@H]2CN=C(Nc3ccccc3)N2CC2CCCCCC2)cc1	·	·	-20	·	2	6	6	-6
Cc1ccc(N=C(c2cccs2)N2CCOCC2)cc1	i	-2	-26	-4	1	2	18	-19
O=Cc1ccc2ccc3cccnc3c2n1	i	21	-17	-3	8	-4	1	-46
Cc1ccc(-c2nc3sc4c(c3c(=O)n2N)CC(C)(C)OC4)cc1	i	0	-45	6	1	-7	-1	-7
COc1cc(-c2nc3cccc(C)n3c2NCC2CCCO2)ccc1O (stereo unspecified)	i	0	-13	6	8	2	-12	·
Cc1ccc(C(C)(C)C)cc1S(=O)(=O)Nc1cccc(C(=O)N2CCN(c3ccccn3)CC2)c1	·	·	-1	·	4	-10	·	4
CCc1ccc(Nc2nc(C)cc(C)n2)cc1	i	-6	-8	-2	-1	-1	-7	-16
N=C1/C(=C/c2cccn2-c2cccc([N+](=O)[O-])c2)C(=O)N=C2SC=CN12	i	10	·	-7	·	·	10	·
CC1CCCCC12NC(=O)N(CC(=O)NNC(=O)c1ccc(Br)cc1)C2=O (stereo unspecified)	·	·	7	·	-5	-2	-7	-16
COC(=O)[C@H](CC(C)C)N(Cc1ccccc1)S(=O)(=O)N(Cc1ccccc1)[C@@H](CC(C)C)C(=O)OC	·	·	11	·	-3	-9	13	-10
CN1CCN(c2ccc([N+](=O)[O-])cc2NC(=O)c2ccccc2)CC1	i	8	-34	1	1	4	-24	·
CCOc1ccc(C2NC(=O)CCC2[N+](=O)[O-])cc1 (stereo unspecified)	i	-2	-6	-5	-5	0	-11	-4
CCOC(=O)c1sc(=S)n2c1[nH]c(=O)c1ccc(C(=O)OC)cc12	i	17	-28	1	0	-1	10	-11
CCc1ccc(Nc2n[n+](-c3ccccc3)c(-c3cccc(Cl)c3Cl)s2)cc1	·	·	-70	·	0	-6	0	-8
O=C(NCCCCc1ccccc1)c1cccc(NC(=O)C2CCC2)c1	·	·	-14	·	1	-4	·	-2
CC(=O)c1cccc(NC(=O)N[C@@H](CC(C)C)C(=O)O)c1	i	-1	-41	2	7	6	-6	-4
CCN1CCN(/C=N/c2nc(C)cs2)CC1	i	6	·	-4	4	4	10	-17
CC(=O)c1cccc(NC(=O)CCn2c(=S)oc3ccccc32)c1	i	-13	16	-13	-2	0	-4	·
COc1ccc(CC(=O)NC(=S)Nc2ccc(S(N)(=O)=O)cc2)cc1	i	11	0	12	-4	-4	-8	·
O=C(COC(=O)C1c2ccccc2Oc2ccccc21)Nc1ccc2c(c1)OCO2	i	-4	·	1	0	4	-9	-8
O=C1CSC(c2ccncc2)N1Cc1ccc(F)cc1 (stereo unspecified)	·	0	-50	22	2	4	-12	·
CC(=O)Nc1ccc(-c2ccnc3c2CC(C(=O)Nc2ccc(Cl)c(C(F)(F)F)c2)O3)cc1 (stereo unspecified)	·	·	-9	·	5	-10	·	-20
Clc1ccc(-c2nc3ncccn3c2Cl)cc1	i	2	·	32	3	-5	6	·
COC(=O)c1ccc(CSc2nnc(CNC(=O)c3ccc(OC)cc3)o2)o1	i	2	-32	-5	1	4	-11	-19
CCCNC(=O)c1nnsc1Sc1ccc(Cl)cc1	i	5	16	2	-5	-1	3	1
CCOC(=O)c1c(N)sc(C(=O)Nc2ccccc2)c1C	·	-5	-131	-3	0	2	12	·
CCN(CC)S(=O)(=O)c1c(Br)cc(C)cc1Br	i	-14	·	8	2	0	-7	-5
CCCCOC(=O)c1ccc(Nc2ccc([N+](=O)[O-])cn2)cc1	i	-10	6	-6	6	9	-3	·

Among those listed so far, these have a furan ring, fused or not:
SMILES	Rce1 inhib	eIF4H FP inh	HIV Env fusion	PABP FP inh	MT1-MMP act inh	MT1-MMP act inh RFP	CSC inhib	Yeast UUG start	others
O=C(Nc1cccc(Oc2ccccc2)c1)c1ccc(-n2cncn2)c2ccoc12	·	·	19	·	1	-2	·	-18
CS(=O)(=O)N(CC(=O)NCc1ccco1)c1ccc(Cl)cc1Cl	i	1	-6	?	1	0	0	-8
CC(C)(C)c1ccc(C(=O)NCc2nnc(SCC(=O)NCc3ccco3)o2)cc1	i	52*	-141	11	4	8	9	-13	eIF4H FP inh retest=82*;PABP FP inh retest=50
COC(=O)c1ccc(CSc2nnc(CNC(=O)c3ccc(OC)cc3)o2)o1	i	2	-32	-5	1	4	-11	-19

The list continues.
SMILES	Rce1 inhib	eIF4H FP inh	HIV Env fusion	PABP FP inh	MT1-MMP act inh	MT1-MMP act inh RFP	CSC inhib	Yeast UUG start	others
COc1ccc(C(=O)NC(=S)Nc2ccc(Cl)cn2)cc1OC	i	5	-22	-8	-1	1	-4	·
Cc1cc(=O)oc2c3c(cc(OCC(=O)NCc4ccco4)c12)OC(C)(C)CC3	i	12	·	14	3	-1	-9	16
CCCc1cc(=O)[nH]c(SCC(=O)Nc2ccc(C(=O)Nc3ccccc3OC)cc2)n1	·	·	-99	·	9	5	-2	-19
O=C(O)CCc1ccc(-c2ccc(F)cc2)n1Cc1ccco1	i	8	-69	4	-3	0	1	-8
CC1=C(C(=O)OC2CCCC2)C(c2coc3ccc(C)cc3c2=O)C2=C(CCCC2=O)N1 (stereo unspecified)	i	1	27	-12	-1	-4	·	14
COc1ccc(NC(=O)c2ccc(CN3CCc4ccccc4C3)cc2)c(OC)c1	i	-8	3	3	3	-3	42	-15
CC(C)(C)C1CCC(C(=O)Nc2cccnc2)CC1 (stereo unspecified)	i	2	3	-4	-6	-8	-5	2
CCOC(=O)N1CCC(NC(=O)C2CCN(c3ccc(N4CCOCC4)nn3)CC2)CC1	i	6	·	6	-3	-2	-6	·
CCCOC(=O)c1ccc(-n2nnnc2SCC(=O)N2CCCCC2)cc1	i	-1	-18	-12	0	-2	-5	-1
CC1(C)CC(=O)C=C(NCc2cccs2)C1	i	-4	-31	-10	4	2	-4	·
COc1ccc(OCC(=O)Nc2ccccc2OC(F)F)cc1	i	2	·	4	7	-1	-2	-3
CCCS(=O)(=O)N1CCCC(C(=O)NCCc2ccccc2)C1 (stereo unspecified)	i	-5	-10	6	1	5	·	6
Cc1cc(C(=O)OCC(=O)N2CCN(C(=O)c3ccco3)CC2)c(C)n1-c1ccc(F)cc1	i	-10	·	0	7	4	20	-4
Cc1cc(C)nc(N2CCCC(C(=O)Nc3ccc4c(c3)OCO4)C2)n1 (stereo unspecified)	i	-6	·	-9	-2	1	1	·
O=C(Cn1nc(-c2ccccc2)c2ccccc2c1=O)Nc1ccccn1	i	0	·	6	5	1	-6	-18

For reference, some entries already given:
SMILES	Rce1 inhib	eIF4H FP inh	HIV Env fusion	PABP FP inh	MT1-MMP act inh	MT1-MMP act inh RFP	CSC inhib	Yeast UUG start	others
Cc1cc(C)nc(N2CCCC(C(=O)Nc3ccc4c(c3)OCO4)C2)n1 (stereo unspecified)	i	-6	·	-9	-2	1	1	·
O=C(Cn1nc(-c2ccccc2)c2ccccc2c1=O)Nc1ccccn1	i	0	·	6	5	1	-6	-18

(further entries)
SMILES	Rce1 inhib	eIF4H FP inh	HIV Env fusion	PABP FP inh	MT1-MMP act inh	MT1-MMP act inh RFP	CSC inhib	Yeast UUG start	others
CCNCCNC(=O)c1c(O)c2cccc3c2n(c1=O)CCC3	i	-9	·	22	2	3	-23	-13
Cc1cccc2nc(CSC(=N)N)c(Br)n12	i	-6	·	-10	7	5	·	·
CCN(C(=O)COC(=O)CSc1ccc(C)cc1C)c1c(N)n(Cc2ccccc2)c(=O)[nH]c1=O	·	·	4	·	-3	3	·	17
Cc1ccc(CNS(=O)(=O)c2c(C(=O)N3CCCCC3)c(C)n(C)c2C)cc1	i	-6	-2	13	3	5	-3	6
CC(C)CCn1c(N2CCC(C(N)=O)CC2)nc2c1c(=O)[nH]c(=O)n2C	i	2	·	4	2	3	1	8
COCCn1c(SCC(=O)c2[nH]c(C)c(C(C)=O)c2C)nc2ccccc21	i	-2	·	-7	4	-5	-8	·
COc1ccc(CN(C)C(=O)Cn2cnc3c(SC)nc(N)nc32)cc1OC	·	·	30	·	-2	-18	·	-15
Cc1ccc(C)c(NC(=O)COC(=O)c2cccc(S(=O)(=O)N3CCCC3)c2)c1	·	·	5	·	4	6	·	-19
COCCNC(=O)c1onc(CSc2cccc(OC)c2)c1C(=O)NCCOC	i	·	2	·	3	4	22	-17

Of the compounds above, three have bromine:
SMILES	Rce1 inhib	eIF4H FP inh	HIV Env fusion	PABP FP inh	MT1-MMP act inh	MT1-MMP act inh RFP	CSC inhib	Yeast UUG start	others
CC1CCCCC12NC(=O)N(CC(=O)NNC(=O)c1ccc(Br)cc1)C2=O (stereo unspecified)	·	·	7	·	-5	-2	-7	-16
CCN(CC)S(=O)(=O)c1c(Br)cc(C)cc1Br	i	-14	·	8	2	0	-7	-5
Cc1cccc2nc(CSC(=N)N)c(Br)n12	i	-6	·	-10	7	5	·	·

Assay outcomes: PubChem, several laboratories
